Compound activity from PubChem BioAssay.
D2 PAM = Beta-Arrestin HTS for Positive Allosteric Modulators of the Human D2 Dopamine Receptor: Potentiators; D(2) dopamine receptor (Homo sapiens), P14416; DiscoveRx D2 beta-arrestin cells, luminescence, 90 min; 100% = 57 uM dopamine signal; potentiation, % (no concentration beside the values); actives 0.23% (n = 360,000); AID 624464, 2012; active = potentiation of 50% or more; inconclusive = 30% to 50%; inactive = 30% or less;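 note: compound concentration not given in the record; tested on top of an EC20 dose of dopamine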
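PathHunter D2 cells, attached overnight at 37 deg C, received compound in DMSO plus dopamine at EC20 (50 nM final) for 90 min at 37 deg C. Beta-arrestin recruitment was read as luminescence after 1 h with detection reagent at ambient temperature.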
gsp antag = qHTS for Antagonists of gsp, the Etiologic Mutation Responsible for Fibrous Dysplasia/McCune-Albright Syndrome: qHTS; gsp-mutant cells, cAMP HTRF, 30 min; control for the full effect not named in the record; Potency, µM (highest dose often 76.9 µM), for inactives: at the highest dose activity change, negative = inhibition, usual class: inhibitors; actives 0.4% (n = 340,000); active = falling curve of any shape with a large fitted effect; inconclusive = falling curve, mostly with a smaller effect; inactive = flat or rising curve; cell line not stated here;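 note: intracellular cAMP measured with PDE inhibitor Ro 20-1724 present during compound exposure; potency is the fitted concentration of half-maximal effect; % is set by controls: 0 for no effect and ±100 for the full control effect; nearly all actives have a fitted effect of over 65% in size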
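Cells, 2000/well, grown 16–24 h in DMEM 10% FBS with 0.5 mg/ml G418, then compounds plus […] (300 uM addition stock), 30 min at 37C. cAMP read by HTRF (cAMP-d2 and anti-cAMP antibody-K in lysis buffer) after 30 min RT.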
ClpP mod = qHTS Assay for Activators of ClpP. purified B. subtilis ClpP, FRET peptide cleavage, 20 min. Potency, µM (titrated, usually from 57.5 µM), without a hit: at the top dose activity change, negative = active. actives 1.9% (n = 340,000); active = well fitted falling curve with a large enough effect; inconclusive = small, poorly fitted or top-dose-only effect; inactive = no such curve, though single readings can be large or run the other way; note: potency is the fitted concentration of half-maximal effect; the source files actives as falling curves though it sought activators and does not explain the sign; nearly all actives have a fitted effect of over 65% in size; many hits overshoot -100%
Target sequence (P80244 whole entry, looked up): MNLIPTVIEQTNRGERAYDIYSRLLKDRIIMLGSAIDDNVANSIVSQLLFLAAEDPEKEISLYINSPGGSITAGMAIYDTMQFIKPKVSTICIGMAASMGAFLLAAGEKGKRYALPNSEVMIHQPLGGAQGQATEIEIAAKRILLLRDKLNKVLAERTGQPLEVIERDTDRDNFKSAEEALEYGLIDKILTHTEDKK
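ClpP 10 microg/mL final, pH 8 Tris/KCl buffer with BSA, glycerol, Tween-20; compound pinned in; FRET-FV substrate; RT 20 min; Ex320/Em430; ΔFRET vs ADEP 5.8 microM, DMSO, no enzyme.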
gsp agonist = qHTS for Agonist of gsp, the Etiologic Mutation Responsible for Fibrous Dysplasia/McCune-Albright Syndrome: qHTS; gsp mutant cells, cAMP HTRF, 30 min; control for the full effect not named in the record; Potency, µM (top dose mostly 76.9 µM), for inactives: top-dose activation (cAMP increase), hits mostly activators; actives 0.13% (n = 340,000); active = well fitted activation curve with a large enough effect; inconclusive = small, poorly fitted or top-dose-only effect, or another doubt; inactive = no such curve, though single readings can be large or run the other way; cell line not stated here;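 note: phosphodiesterase inhibitor Ro 20-1724 added with compounds to block cAMP breakdown; potency is the fitted concentration of half-maximal effect; nearly all actives have a fitted effect of over 60% in size; about a fifth of the inactives were tested at one dose only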
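Cells in DMEM/10% FBS with G418 were pretreated with compounds in DMSO plus […] (300 uM stock) for 30 min at 37C. cAMP was measured by HTRF (cAMP-d2 plus anti-cAMP antibody-K) after 30 min at room temperature.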
TRPV1 PAM = HTS Assay for Compounds that Act as Potentiators of the Vanilloid Receptor 1; Transient receptor potential cation channel subfamily V member 1 (Homo sapiens), Q8NER1; TRPV1-expressing cells, Fluo-8 calcium influx, capsaicin EC20 potentiation; host cell line not named in the record; control for the full effect not named in the record; potentiation, % at 8.33 µM; actives 0.02% (n = 320,000); AID 540277, 2011; active means potentiation above 80%; inconclusive means 30% to 80%; inactive means below 30%; note: 0% is about no effect
Target sequence (Q8NER1 whole entry, looked up): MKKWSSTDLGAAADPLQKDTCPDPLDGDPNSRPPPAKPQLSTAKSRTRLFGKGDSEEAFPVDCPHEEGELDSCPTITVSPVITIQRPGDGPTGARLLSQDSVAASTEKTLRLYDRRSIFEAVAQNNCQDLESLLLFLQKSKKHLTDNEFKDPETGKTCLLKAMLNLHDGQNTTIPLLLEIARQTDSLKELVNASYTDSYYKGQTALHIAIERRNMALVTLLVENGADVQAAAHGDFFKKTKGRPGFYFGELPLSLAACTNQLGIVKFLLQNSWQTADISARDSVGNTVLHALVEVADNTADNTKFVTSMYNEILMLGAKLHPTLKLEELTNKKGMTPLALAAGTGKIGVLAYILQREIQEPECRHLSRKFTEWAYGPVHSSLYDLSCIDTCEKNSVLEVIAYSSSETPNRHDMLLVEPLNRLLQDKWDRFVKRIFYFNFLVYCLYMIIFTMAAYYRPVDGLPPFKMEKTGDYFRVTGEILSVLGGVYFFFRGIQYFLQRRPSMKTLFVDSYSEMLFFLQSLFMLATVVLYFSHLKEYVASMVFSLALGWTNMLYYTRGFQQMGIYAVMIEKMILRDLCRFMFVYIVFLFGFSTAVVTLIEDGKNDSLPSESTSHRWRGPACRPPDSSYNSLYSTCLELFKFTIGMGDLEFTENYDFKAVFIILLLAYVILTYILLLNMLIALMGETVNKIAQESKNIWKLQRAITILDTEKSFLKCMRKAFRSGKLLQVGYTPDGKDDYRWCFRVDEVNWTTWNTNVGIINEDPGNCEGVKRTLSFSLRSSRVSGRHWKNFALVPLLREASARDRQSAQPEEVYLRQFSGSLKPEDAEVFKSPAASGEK
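Cells expressing TRPV1 were dye-loaded with Fluo-8 and read kinetically: 10 s baseline, 3 min after compound (agonist portion), then 2 min after EC20 capsaicin (allosteric enhancer portion). Calcium-bound dye fluorescence at 480/520 nm.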
Menin MLL FP FL = qHTS Assay for Inhibitors Targeting the Menin-MLL Interaction in MLL Related Leukemias: Competition With Fluorescein Labeled MLL-derived Peptide; FP activity change, % at 61.4 µM; AID 1766, 2009; Fluorescence polarization, fluorescein-MLL peptide displacement from menin; 290,000 tested, under 10 active; inconclusive = falling polarisation curve, or a change in total fluorescence; inactive = total fluorescence flat and polarisation flat or rising; no compound was filed as active; the % refers to the polarisation; negative = inhibition;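 note: % of control where 0% means no effect; inhibitors lower the polarisation; unlabelled MLL peptide was the positive control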
Sfp PPTase inh = qHTS Assay for Inhibitors of Bacillus subtilis Sfp phosphopantetheinyl transferase (PPTase); Biochemical Sfp PPTase activity, qHTS; 4'-phosphopantetheinyl transferase ffp (Bacillus subtilis), Q9F4F7; AID 1490, 2009; Potency, µM, without a hit: max response, negative = inhibition, actives largely listed as inhibitors; actives 3.5% (n = 310,000); active = well fitted inhibition curve with a large enough effect; inconclusive = small, poorly fitted or top-dose-only effect, or another doubt; inactive = no such curve, though single readings can be large or run the other way;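 note: the enzyme is Sfp with the accession as filed and its product quenches rhodamine fluorescence; potency is the fitted concentration of half-maximal effect; 0% = enzyme reaction without inhibitor and -100% = no enzyme wells; top concentration of the series not given in the record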
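Compounds were incubated with enzyme (final 15 nM) for 15 min at room temperature before substrate addition started the reaction. Fluorescence at 525 nm excitation, 598 nm emission was recorded immediately and after 30 minutes.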
Numbers without * were called inactive; ? = inconclusive; · = no result given; [ ] = dose if it differs, or a comment.

SMILES	D2 PAM	gsp antag	ClpP mod	gsp agonist	TRPV1 PAM	Menin MLL FP FL	Sfp PPTase inh
CC(C)NC(=O)Cn1nnc(-c2ccc(Cl)cc2)n1	5	7%	-1.4%	-51%[inhibitor]	-12	10	3%
COCC1CCN(C(=O)c2cc(COc3ccc4ncccc4c3)on2)CC1	1	-27%	·	-1%[15.4 µM]	-1	0.8	13%
O=C(O)CNC1=NCCC1	·	·	·	·	-2	3.1	-3%
Cc1ccc2nc(N3CCOCC3)c(C=O)c(=O)n2c1	-1	7%	0.6%	4%	-8	0.1	-17%
O=C(c1ccc(N2CCCCC2)c([N+](=O)[O-])c1)N1CCN(c2ccccn2)CC1	-11	-10%	0.4%	9%	-4	-1.6	-12%
CC(C)C(NS(=O)(=O)c1ccc(Br)s1)C(=O)O (stereo not given)	7	-8%	-1.9%	19%	-3	2.5	6%
O=C(Nc1cccc(F)c1)c1cccnc1	3	2%	-0.1%	-12%	12	-2.6	12%
CC(=O)c1ccc(NC(=O)CN2C(=O)CCC2=O)cc1	-3	7%	-1.2%	-8%[15.4 µM]	0	2.5	6%
CCOc1ccc(N=C2NC(=O)C(CC(=O)Nc3ccc(OC)cc3)S2)cc1 (stereo not given)	-2	-10%	1.0%	6%	11	-3.9	-3%
Cc1ccc(-n2ncc3c(Nc4c(C)n(C)n(-c5ccccc5)c4=O)ncnc32)c(C)c1	-16	1%	0.8%	-35%[inhibitor]	14	-0.9	14%
CCN(CC)c1nc2c(s1)C(=O)CC(C)(C)C2	-7	4%	-10%	22%	-2	1.0	18%
COc1c2c(cc3c1C(CC(O)Cc1ccccc1)N(C)CC3)OCO2 (stereo not given)	-10	12%	-9.2%	-19%[15.4 µM]	-4	3.5	-3%
O=C(NC1CCCCC1)c1cc(S(=O)(=O)N2CCN(c3ccccc3)CC2)ccc1Cl	-6	9%	·	7%	·	·	·
Cc1ccc(S(=O)(=O)N2CCC(=O)N(CCOCc3cccc(Cl)c3)CC2)cc1	-5	-8%	-0.5%	-16%	20	0.5	-7%
CN1CCN(C(=S)c2ccc(-c3cccc(Cl)c3Cl)o2)CC1	-32	-6%	1.5%	18%	-14	3.1	-13%
Cc1cccc(NC(=O)Cc2c(F)cccc2Cl)n1	-1	-4%	·	-100%[inhibitor]	4	-1.0	5%
O=C(C[C@@H]1C/C=C\C[C@@H](Cc2ccc(F)cc2)C(=O)OCCNC1=O)N[C@H](CO)Cc1ccccc1	-20	9%	1.9%	·	·	·	·
Cc1c(C(=O)O)c2cc(O)ccc2n1-c1ccccc1	1	-4%	-14%	-3%	-7	1.9	18%
COCCCn1c(=N)c(C(=O)NCc2ccc3c(c2)OCO3)cc2c(=O)n3ccccc3nc21	-2	0%	-26%	43%	-3	5.7	-4%
COc1cccc(OC)c1C(=O)NCCOc1cc(C)cc(C)c1	-2	1%	-1.2%	7%[15.4 µM]	?	-2.5	-6%

The list goes on (2 carried over from the part before).
SMILES	D2 PAM	gsp antag	ClpP mod	gsp agonist	TRPV1 PAM	Menin MLL FP FL	Sfp PPTase inh
COCCCn1c(=N)c(C(=O)NCc2ccc3c(c2)OCO3)cc2c(=O)n3ccccc3nc21	-2	0%	-26%	43%	-3	5.7	-4%
COc1cccc(OC)c1C(=O)NCCOc1cc(C)cc(C)c1	-2	1%	-1.2%	7%[15.4 µM]	?	-2.5	-6%
CN1CCN(NC(=O)CN2C(=O)/C(=C/c3c(Cl)cccc3Cl)SC2=S)CC1	-13	-6%	2.5%	1%	·	11	-18%
N/C(=N\OC(=O)c1cc(Cl)ccc1Cl)c1ccncc1	28	5%	·	-1%[15.4 µM]	10	-2.8	-8%
CC(C)C(=O)N1CCN(c2ccccc2NC(=S)NC(=O)/C=C/c2ccco2)CC1	-2	?	·	-29%	·	·	·
COc1ccc(NC(=O)N(C2CCCCC2)C(C)c2ccco2)c(OC)c1 (stereo not given)	-3	-19%	-0.6%	-16%	-11	-2.2	13%
CC1c2ccccc2N(NC(=O)Cc2ccccc2)C1C (stereo not given)	-12	-10%	-5.6%	4%[15.4 µM]	0	1.0	5%
CCOC(=O)N1CCN(C(c2ccc(Cl)cc2)c2sc3nc(C)nn3c2O)CC1 (stereo not given)	4	-6%	-2.4%	17%	-4	3.4	-4%
COc1cccc(Nc2nc(-c3cccs3)nc3ccccc23)c1	-9	-20%	·	?	-3	1.3	2%
Cc1cccc(C)c1NC(=O)CN1CCN(C(=O)C2CCC2)CC1	2	5%	·	8%[15.4 µM]	-40	·	·
CCNc1nc(NCC)nc(SCCOC(=O)COc2ccc(Cl)cc2Cl)n1	-1	11%	-3.8%	10%	-4	-0.1	5%
CC(=O)N/N=C(\C)CC(=O)Nc1cccc2c1CCCC2	-1	6%	·	-2%[15.4 µM]	8	-1.1	-5%
CC1=NN(C(=O)c2ccc(Cn3nc(C)cc3C)o2)C(O)(C(F)(F)F)C1 (stereo not given)	-10	-11%	0.8%	-34%[inhibitor]	5	-3.1	7%
Cc1ccccc1OCC(=O)OC(C)C(=O)NC1CCCC1 (stereo not given)	-1	5%	1.7%	7%	-17	·	·
O=C(CN1CCN(C(=O)c2ccccc2Cl)CC1)Nc1cccc(S(=O)(=O)N2CCCC2)c1	-4	-9%	0.6%	1%	·	·	·
CC(OC(=O)C1CC(=O)N(Cc2ccccc2)C1)C(=O)Nc1ccccc1[N+](=O)[O-] (stereo not given)	15	6%	0.5%	?	12	·	·
O=[N+]([O-])c1ccc(N(CCO)Cc2ccccc2)c([N+](=O)[O-])c1	-4	-7%	-2.2%	22%	7	-0.7	4%
COC(=O)[C@]1(Cc2ccccc2)N[C@H](CN(C)C(=O)Nc2ccccc2)[C@@H]2C(=O)N(Cc3ccccc3)C(=O)[C@@H]21	-8	-11%	1.2%	·	·	·	·
CCOC(=O)C1(Cc2ccccc2C(F)(F)F)CCN(C2CCC2)CC1	-31	·	·	4%[15.4 µM]	-2	3.8	6%
Cc1cc(OCC(=O)Nc2ccc(CCO)cc2)c2c(C)c(C)c(=O)oc2c1	-2	-6%	4.0%	-17%	-10	1.4	5%
CCOC(=O)c1nc(C)nc(Sc2n[nH]c(-c3ccc(C(C)(C)C)cc3)n2)c1C	-3	-15%	-3.3%	-29%	-2	-1.0	23%
COc1ccc(NC(=O)c2ccccc2-c2ccccc2C(=O)O)cc1	-7	8%	-0.1%	1%[15.4 µM]	-3	1.3	12%
Clc1ccccc1CN1CCN(/N=C/C=C/c2ccco2)CC1	-11	7%	-0.2%	-33%[inhibitor]	7	0.6	56µM*
N#Cc1ccccc1Cn1c(=O)n(Cc2ccc(C(=O)NCc3ccco3)cc2)c(=O)c2ccccc21	-2	-2%	-14%	?	5	-1.9	-8%
Nc1nc(Nc2cccc(C(F)(F)F)c2)nc(C(F)(F)F)n1	-9	6%	-2.8%	19%	-3	0.1	22%
CCc1cccc(N(C(=O)c2csnn2)C(C(=O)NC2CCCCC2)c2ccncc2)c1 (stereo not given)	-8	5%	·	16%	1	-8.8	6%
COc1ccc(NC(=O)CSc2nnc(C3CC3)n2-c2ccccc2)cc1	6	-8%	-0.9%	-62%[inhibitor]	7	2.5	12%
O=C(O)c1ccc(S(=O)(=O)N2CCSCC2)cc1	-2	9%	·	-25%	?	-4.5	24%
c1ccc(-n2nnnc2Cc2nnnn2-c2ccccc2)cc1	-3	10%	·	-3%	-2	-2.2	12%
Cc1ccc(C(=O)Nc2nnc(CC(=O)N/N=C/c3ccncc3)s2)cc1	1	-15%	-4.9%	?	6	10	-24%
Cc1cc(C)c(S(=O)(=O)N2CCOC2CNC(=O)C(=O)NCCN(C)C)c(C)c1 (stereo not given)	2	10%	-2.4%	39%	-6	·	0%
Cc1c(Nc2nc(C(F)(F)F)nc3ccccc23)c(=O)n(-c2ccccc2)n1C	1	11%	1.7%	-27%	1	1.3	14%
CC(=O)c1ccc2c(c1)CC1(C2)Cc2cc3c(cc2C1)C(=O)CC3 (stereo not given)	-4	15%	1.1%	26%	·	·	·
COCCN1C(=O)N[C@@H](c2ccccc2)[C@H](C(C)=O)[C@H]1C	-13	9%	-0.9%	?	·	-1.2[11.7 µM]	-14%
COCC(=O)Nc1nnc(-c2cccs2)s1	-5	3%	?	14%	1	-1.0	-12%
COC(=O)C(Cc1ccc(O)cc1)NC(=O)NC12CC3CC(CC(C3)C1)C2 (stereo not given)	-7	?	1.4%	-2%[15.4 µM]	-13	2.7	-3%
O=C(NCc1ccccn1)C1CCC(=O)N1C1CCCC1 (stereo not given)	-7	8%	-1.2%	?	·	·	·
COc1ccc(-c2nnc(S/C(=C/c3ccc(Cl)cc3)C(=O)O)o2)cc1	-1	8%	·	?	7	-0.6	-6%
O=C(COc1ccc2oc3c(c2c1)CCCC3)Nc1ccccn1	-1	-2%	0.3%	1%	-21	2.8	6%
Fc1ccc(NCc2cn3ccccc3n2)cc1	-3	-8%	4.9%	-25%	?	-9.0	-11%
O=C1OC(c2ccc(F)cc2)=N/C1=C\c1ccc(Br)o1	-7	-8%	·	27%[15.4 µM]	2	9.8	-12%
CCOC(=O)N1CCN(Cc2nc(N)nc(Nc3ccc(OCC)cc3)n2)CC1	5	0%	-2.1%	-30%	7	3.9	6%
CC(C)CN(C(=O)CSc1nncn1C)C1CCS(=O)(=O)C1 (stereo not given)	1	-6%	-2.5%	6%	2	·	·
CCOC(=O)c1ccc(S(=O)(=O)n2c(CN3CCCCC3)nc3ccccc32)cc1	10	-13%	-6.9%	5%	0	-6.1	5%
CC(=O)N(NC(N)=O)C(C)CC(=O)C1C(C)C=CCC1(C)C (stereo not given)	1	10%	·	-31%[inhibitor]	4	2.5	6%
